D2 PAM = human D2 receptor positive allosteric modulation; actives 0.23% (n = 360,000); DiscoveRx D2 beta-arrestin cells, luminescence, 90 min; 100% = 57 uM dopamine signal; AID 624464; potentiation, % (no concentration beside the values); active = potentiation of 50% or more; inconclusive = 30% to 50%; inactive = 30% or less;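 note: compound concentration not given in the record; tested on top of an EC20 dose of dopamine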
Target sequence (P14416 whole entry, looked up): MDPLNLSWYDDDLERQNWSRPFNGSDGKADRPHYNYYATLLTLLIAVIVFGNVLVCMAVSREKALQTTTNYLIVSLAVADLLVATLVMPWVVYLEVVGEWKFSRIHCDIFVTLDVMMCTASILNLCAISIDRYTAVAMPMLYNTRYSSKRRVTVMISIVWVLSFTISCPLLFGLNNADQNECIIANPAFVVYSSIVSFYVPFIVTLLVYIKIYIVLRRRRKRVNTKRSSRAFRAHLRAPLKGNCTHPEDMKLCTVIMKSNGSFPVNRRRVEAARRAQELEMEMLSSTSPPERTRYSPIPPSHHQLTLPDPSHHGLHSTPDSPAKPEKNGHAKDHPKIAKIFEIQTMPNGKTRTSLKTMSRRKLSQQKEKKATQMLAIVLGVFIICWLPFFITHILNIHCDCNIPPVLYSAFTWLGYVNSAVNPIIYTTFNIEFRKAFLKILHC
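PathHunter D2 cells, attached overnight at 37 deg C, received compound in DMSO plus dopamine at EC20 (50 nM final) for 90 min at 37 deg C. Beta-arrestin recruitment was read as luminescence after 1 h with detection reagent at ambient temperature.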
TRPML1 agonist = human mucolipin-1 channel agonism; AID 624414; TRPML1-expressing cells, Ca2+ dye fluorescence, FDSS; host cell line not named in the record; reference of the full effect not given here; activation, % (concentration not given with the values); Q9GZU1; actives 0.12% (n = 410,000); in the data active = activation above about 50%; inconclusive = about 30% to 50%; inactive = below about 30%; note: 0% is about no effect; the text of the record puts the active cut at 80%
Target sequence (Q9GZU1 whole entry, looked up): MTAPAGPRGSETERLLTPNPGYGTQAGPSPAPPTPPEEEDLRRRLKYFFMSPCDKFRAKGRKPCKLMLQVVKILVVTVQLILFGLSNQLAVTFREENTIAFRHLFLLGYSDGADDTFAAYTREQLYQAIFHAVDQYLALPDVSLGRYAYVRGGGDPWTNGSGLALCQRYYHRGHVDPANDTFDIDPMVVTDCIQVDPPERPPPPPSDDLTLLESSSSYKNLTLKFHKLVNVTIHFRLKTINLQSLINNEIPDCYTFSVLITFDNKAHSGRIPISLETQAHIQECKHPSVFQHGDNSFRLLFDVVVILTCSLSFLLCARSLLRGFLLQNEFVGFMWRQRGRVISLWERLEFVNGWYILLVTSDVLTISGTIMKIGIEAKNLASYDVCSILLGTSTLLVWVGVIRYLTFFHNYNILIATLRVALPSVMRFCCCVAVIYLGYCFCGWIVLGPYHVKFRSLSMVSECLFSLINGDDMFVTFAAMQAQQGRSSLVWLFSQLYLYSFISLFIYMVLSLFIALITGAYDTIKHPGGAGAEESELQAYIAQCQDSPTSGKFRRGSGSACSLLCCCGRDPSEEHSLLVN
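In this qHTS format, compounds were pin-transferred onto Ca8-dye-loaded TRPML1-DL cells induced with Tet overnight, and intracellular Ca2+ fluorescence was recorded kinetically for 110 s after a 10 s baseline. A subsequent 4uM final 54-4 (EC80) addition followed by a second 110 s read served as the antagonist phase.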
D2 agonist = human D2 receptor agonism in beta-arrestin assay. P14416. DiscoveRx PathHunter D2 beta-arrestin, luminescence, 90 min; 100% = 57 uM dopamine signal. activation, % (test concentration not listed). actives 0.084% (n = 360,000); in the data active = activation above about 40%; inconclusive = about 15% to 40%; inactive = below about 15%; note: compound concentration not given in the record; the text of the record calls up to 30% inactive
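Agonist mode: compounds alone added to overnight-plated D2 PathHunter cells for 90 min at 37 C, with 57 uM final dopamine (EC100) defining full response. Beta-arrestin recruitment detected by chemiluminescent reagent, read after 1 h at ambient temperature.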
Six1-Eya2 blk = inhibitors of human Six1/Eya2 interaction. activity change, % (concentration not given with the values). AlphaScreen GST-Six1/His-Eya2 binding, biochemical; hits give low values; control for the full effect not named in the record. actives 0.56% (n = 360,000); in the data active = activity change below about -65%; inconclusive = about -30% to -65%; inactive = above about -30%; note: % is set by controls: 0 for no effect and ±100 for the full control effect
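Six1/Eya2 binding was read as AlphaScreen signal after compounds were pinned into GST-Six1 plus His-tagged Eya2 (5X stock 250/500 nM) in pH 8.0 Tris/NaCl/TCEP buffer, beads added, then incubated 1 h, 37 C, dark.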
PINK1 modulator = changes PINK1 expression; PINK1 immunofluorescence, high-content cytometry, 24 h; actives 0.2% (n = 410,000); Potency, µM (series often up to 76.6 µM), for inactives: at the highest dose activation (PINK1 increase), hits mostly activators; active = well fitted activation curve with a large enough effect; inconclusive = small, poorly fitted or top-dose-only effect; inactive = flat fitted curve, though single readings scatter; cell line not stated here;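 note: potency is the fitted concentration of half-maximal effect; % of control where 0% means no effect; nearly all actives have a fitted effect of over 65% in size; a mitochondrial uncoupler was the plate control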
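PINK1 protein, normally rapidly degraded, was detected by immunofluorescence after 24 hour compound treatment of a stable cell line. Titration data (5 concentrations) came from laser-scanning cytometry, with CCCP-treated wells as controls.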
TRPML1 blocker = blocks the human TRPML1 channel | Q9GZU1 | TRPML1-inducible cells, Ca2+ dye fluorescence, FDSS; hits give low values; inhibition of EC80 agonist-evoked calcium signal | activity change, negative = inhibition, % (test concentration not listed) | actives 0.02% (n = 390,000) | AID 624415; in the data active means activity change below about -50%; inconclusive means about -30% to -50%; inactive means above about -30%;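 note: stimulus is agonist 54-4 at its EC80 concentration; % is set by controls: 0 for no effect and ±100 for the full control effect; compound concentration not given in the record; the text of the record puts the active cut at -80%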
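TRPML1-DL cells, Tet-induced overnight (~16 h, 37 °C) at 1,500 cells/well, were loaded with Ca8 no-wash dye plus quencher for 45-90 min at room temperature. Compounds were pinned during FDSS kinetic reading; agonist 54-4 at EC80 (4 uM final) then added.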
The depositor's hits bear a star; ? = inconclusive; . = not tested or not shown; [ ] = remark or other dose.

structure	D2 agonist	D2 PAM	Six1-Eya2 blk	TRPML1 agonist	TRPML1 blocker	PINK1 modulator
CCN(CC(=O)Nc1c(F)cccc1F)C(=O)CCOc1ccc(C)cc1	0.7	8	4	-0.7	0	0.6%
O=C(NC1CC1)c1ccccc1	-2.3	-5	2	-0.6	-7	-0.1%
CN(CC(=O)Nc1cccc(F)c1)C(=O)c1ccc(COc2ccccc2)o1	0.0	-13	-2	-1.0	8	-0.8%
CCc1ccc(C(=O)N2CCCN(C)CC2)s1	5.4	-14	-10	0.6	26	-1.1%
Cc1ccccc1NC(=O)c1c(C)oc2ccc(O)c(CN3CCCC3)c12	.	.	.	-0.9	-9	1.3%
CCN(Cc1ccncc1)Cc1c(O)ccc2cc(Br)ccc12	?	8	4	0.9	-1	-2.1%
O=C(Cc1ccc(Cl)c(Cl)c1)N/N=C/c1cccnc1	0.7	-11	3	0.6	-1	-0.9%
CCOC(=O)/C=c1\s/c(=C\c2ccc(C(F)(F)F)cc2)c(=O)n1CC(=O)NCc1ccco1	-2.4	4	23	1.9	?	2.6%
CCC(CO)Oc1cc(NC(=O)Cc2ccccc2F)c2ncn(C(C)C)c2c1 (configuration not stated)	0.2	1	0	-0.4	0	0.2%
NC(=O)C1CCN(C(=O)CSc2nc3ccccc3o2)CC1	-6.4	-11	2	0.2	11	0.3%
COc1ccc(CNC(=O)c2cc3ccccn3n2)cc1OC	.	.	.	-0.9	1	2.0%
CCOC(=O)c1ccc(-n2ncc(C(=O)OCC)c2N)cc1	1.8	-10	1	1.8	-18	8.0%
COc1ccc(C(=O)N2CCC(C(=O)Nc3ccc(C)cc3)CC2)cc1	0.3	-5	-3	0.4	42	-0.4%
CCC(=O)N1CCC(C)(C(=O)Nc2cc(OC)c(OC)c(OC)c2)C1 (configuration not stated)	-1.7	-4	1	-0.1	.	1.7%
COc1ccc(-c2cc(-c3ccc(C)cc3)nc(SCc3nnc(-c4ccccc4)o3)c2C#N)cc1OC	-3.6	7	6	1.0	-6	?
COc1cc(OC)c(NC(C)C(=O)NCc2ccccc2)cc1Cl (configuration not stated)	-0.3	-1	-3	-0.1	-3	0.9%
Cc1cccc(OCc2nnc(N)s2)c1C	-1.4	-3	0	0.2	-3	9.6%
COC(=O)c1ccc(CSc2ncnc3c2nnn3-c2ccc(OC)cc2)o1	-0.9	6	1	1.4	3	5.9%
Cc1ccc(NC(=O)c2nc(S(C)(=O)=O)ncc2N(Cc2ccc(C(C)(C)C)cc2)Cc2ccco2)cc1C	.	.	.	0.2	26	1.2%
COc1cccc(-c2nc(OC(C)C)c3ccccc3n2)c1	-6.6	-16	37	-0.3	-14	14%
COc1ccc(OC)c(C2C(C(=O)N(C)C)=C(C)Nc3nc4ccccc4n32)c1 (configuration not stated)	-2.1	-18	-2	-0.5	46	-0.7%
CCC(=O)N/N=C(\C)CC(=O)Nc1ccc2ccccc2c1	-2.6	-1	-7	2.5	-17	-0.7%
COc1ccc(C(=O)/C=C/Nc2ccc(S(=O)(=O)Nc3nc(C)cc(C)n3)cc2)c(OC)c1	-2.1	-1	-14	2.0	-3	0.5%
CCOc1ccc(C2CC(=O)c3c([nH]c(C(=O)OCC4CCCCC4)c3C)C2)cc1 (configuration not stated)	.	.	.	0.2	22	0.3%
Cc1cccc(NC(=O)Nc2cccc3ccccc23)c1	1.1	-2	7	0.2	4	0.1%
CCOC(=O)c1ccccc1NC(=O)C(=O)Nc1ccc2nc3n(c(=O)c2c1)CCCCC3	.	.	.	4.7	-28	11%
CN(C)CCNC(=O)CNC(=S)N(Cc1ccccc1)Cc1cccnc1	-2.4	-7	-17	-0.5	-14	-2.5%
CN(Cc1ccccc1)C(=O)c1[nH]cnc1C(=O)Nc1ccccc1F	-11	-1	2	-0.4	8	0.4%
Cc1ccc2[nH]c3c(=O)n(CCN4CCOCC4)cnc3c2c1	-2.1	-1	-3	1.2	6	-0.7%
COc1ccc(OC)c(CN2C(=O)c3ccccc3C2c2nnnn2-c2ccc3c(c2)OCCO3)c1 (configuration not stated)	.	.	18	4.4	.	5.3%
CCN(c1ccccc1)c1nc(=O)c2cccnc2s1	1.7	-8	1	1.0	-13	1.5%
COC(=O)CCCCCCCCC(=O)Nc1nc2ccccc2s1	0.1	17	1	1.0	40	-1.0%
COc1ccc(-c2csc(C(O)c3ccccc3)n2)cn1 (configuration not stated)	-2.7	0	3	-0.7	.	-0.2%
CC(=O)c1cc2c(cc1NC(=O)CN1CCC(Cc3ccccc3)CC1)OCO2	-0.3	-1	6	0.8	38	5.7%
CN(C)c1ccc(C(=S)N2CCN(C(=S)Nc3ccc(Cl)cc3)CC2)cc1	-4.4	-16	-5	1.8	-9	2.5%
N#Cc1ccc(-c2ccccc2)nc1Sc1ccc(F)cc1	-2.4	-10	6	-0.4	0	?
C=CC[C@@H](CC(=O)N[C@@H](CO)Cc1ccccc1)C(=O)NC[C@@H](OC(=O)[C@@H](CC=C)Cc1ccc(F)cc1)c1ccccc1	-4.8	-8	2	0.6	12	?
CCN(CC)C(=O)CSc1nc(C)cc(C)n1	-1.0	-5	1	-0.7	8	0.6%
COC(=O)c1c(NS(=O)(=O)c2ccc(C)cc2)sc2c1CCC(C)C2 (configuration not stated)	-0.8	-10	-2	1.0	-8	2.1%
COCCNC(=O)c1onc(CSc2ccncc2)c1C(=O)NCCOC	-0.6	-5	11	0.2	-18	0.9%

Random excerpt: two records from the list
structure	D2 agonist	D2 PAM	Six1-Eya2 blk	TRPML1 agonist	TRPML1 blocker	PINK1 modulator
COc1ccc(OC)c(C2C(C(=O)N(C)C)=C(C)Nc3nc4ccccc4n32)c1 (configuration not stated)	-2.1	-18	-2	-0.5	46	-0.7%
Cc1ccccc1NC(=O)c1c(C)oc2ccc(O)c(CN3CCCC3)c12	.	.	.	-0.9	-9	1.3%

Additional entries:
structure	D2 agonist	D2 PAM	Six1-Eya2 blk	TRPML1 agonist	TRPML1 blocker	PINK1 modulator
O=S1(=O)C[C@H]2NC(=S)N(c3ccccc3)[C@H]2C1	-0.9	2	6	-0.3	20	-0.1%
Cc1ccc(NC(=S)N2CCN(c3ccccn3)CC2)c(C)c1	-2.5	-1	-6	0.5	56	-0.7%
COc1cccc(CC2CC(=O)N(CCc3ccc4c(c3)OCO4)C2=O)c1 (configuration not stated)	-2.6	-10	7	1.9	-7	-1.3%
O=C(OCc1ccccc1)N1C=CCC[C@@H]1c1c(Cl)cccc1Br	-4.6	-5	9	3.1	.	17%
COc1ccc(C(=O)NCCN=C2NS(=O)(=O)c3ccccc32)cc1	-1.2	-7	-9	0.7	-2	-0.5%
O=[N+]([O-])c1ccc(/C=N/Nc2ccnc3cc(Cl)ccc23)o1	0.0	-8	?	1.3	-2	0.9%
Cc1ccc(NC(=O)CN2C(=O)C3CC=C(Cl)CC3C2=O)cc1 (configuration not stated)	-0.8	-3	-4	-0.2	9	-1.1%
CN1CCCC(CC2c3ccccc3Sc3ccccc32)C1 (configuration not stated)	-1.6	-35	-3	2.2	17	-1.2%
Cc1ccc(NC(=O)CCNS(=O)(=O)c2ccc3[nH]c(=O)oc3c2)c(Cl)c1	-0.8	7	2	-0.1	1	1.0%
NC(=O)COC(=O)CNC(=O)c1ccc(Cl)cc1	-2.0	-2	5	0.5	9	-2.0%
O=C(CCOc1ccccc1)NCc1ccccc1	-2.8	2	0	0.0	-5	-0.7%
Cc1[nH]nc(-c2ccc(OCc3cnn(-c4ccccc4)c3)cc2O)c1Oc1ccccc1F	2.7	-1	-3	-0.3	5	5.8%
COc1cc(C(=O)NC2CC(C)(C)CC(C)(C)C2)ccc1OC1CCN(C(C)=O)CC1	-3.7	-6	-3	0.2	16	0.8%
Cc1ccc(C)c(S(=O)(=O)N2CCN(C(C(=O)Nc3ccc(F)cc3)c3ccccc3)CC2)c1 (configuration not stated)	-1.1	-13	-3	1.6	-7	0.0%
Cc1ccc(C)c(N2CCN(C(=O)CCc3nc(-c4ccccc4C)no3)CC2)c1	0.0	3	6	-1.0	-3	0.1%
CC(=O)Nc1ccc(OCC[n+]2cccc(C(N)=O)c2)cc1	-3.7	-1	-3	-0.2	3	-1.3%
OC[C@@H]1CCCN1Cc1nc(-c2cccs2)no1	-3.1	-1	-1	0.3	-11	0.7%
O=C(Nc1cccc2ccccc12)NC1CCCCC1	-1.6	-19	7	-0.7	14	2.5%
CCCN=C1N(C)C[C@@H]2[C@@H]3C(=O)N(Cc4ccccc4)C(=O)[C@@H]3[C@](CC)(C(=O)OC)N12	-0.6	.	5	0.1	2	1.1%
COc1ccc(C)cc1Nc1nc(C)nc2c1oc1ccccc12	-4.1	-8	-3	1.8	3	5.1%
CN(C)c1nc2ncn(Cc3ccccc3)c2c(=O)[nH]1	-6.6	-4	1	.	.	-0.1%
CCOC(=O)c1c(N)sc2c1C1CCN2CC1	-0.5	3	-1	1.6	-2	0.1%
O=C(c1ccc(N2CCCS2(=O)=O)cc1)N1CCN(c2ccc(F)cc2)CC1	6.2	2	6	0.0	2	0.6%
C=CCOc1c(Br)cc(/C=C2/C(=O)ON=C2C)cc1OC	-2.8	-2	5	2.0	-9	9.5%
CCCCCc1nnc(NC(=O)Cn2cnc3ccccc3c2=O)s1	-3.3	-18	-5	0.1	14	-0.4%
O=C(c1cccc(OC2CCN(Cc3ccc(F)cc3Cl)CC2)c1)N1CCCC1	-3.7	-29	-14	1.0	-9	0.9%
CC(=O)c1c(C)nc2ccc([N+](=O)[O-])cc2c1-c1ccccc1	1.5	0	-11	4.2	-5	1.5%
NC(=O)CSCc1ccc(Br)cc1	-2.1	-15	3	-0.2	-5	9.4%[38.3 µM]
C/C(CCc1ccc2c(c1)OCO2)=N\NC(=O)c1ccc(C)cc1C	4.3	-8	-6	4.8	8	-0.6%
COc1ccccc1NC(=O)C[n+]1ccccc1	-0.3	-3	3	0.9	7	-2.1%
Cc1ccc(C(=O)NN2C(=O)C3C4C=CC(C5CC45)C3C2=O)cc1 (configuration not stated)	-14	-11	7	0.1	10	2.6%
CC(=O)C1=C(O)C(=O)N(c2ccc(S(N)(=O)=O)cc2)C1c1cccc([N+](=O)[O-])c1 (configuration not stated)	-7.7	-6	7	.	.	4.2%
COc1ccccc1CC(=O)NCc1csc(-c2cccs2)n1	-1.3	-9	11	0.1	4	2.1%
O=C(Nc1c2c(nn1-c1cccc(Cl)c1)CS(=O)(=O)C2)C1CC1	-3.0	-8	-10	0.3	35	1.3%

Quoted from the listing:
CC(=O)C1=C(O)C(=O)N(c2ccc(S(N)(=O)=O)cc2)C1c1cccc([N+](=O)[O-])c1 (configuration not stated) in PINK1 modulator: 4.2%
CC(=O)c1c(C)nc2ccc([N+](=O)[O-])cc2c1-c1ccccc1 in TRPML1 blocker: -5

Compound activity as filed in PubChem.

Rows were taken by chance. About 1% of those tested had a hit in this group.
